# VACV mCherry inh = inhibitors of vaccinia virus infection (mCherry reporter signal) | Vaccinia virus mCherry reporter infection, fluorescence; about a quarter of the inactives have no number | Potency, µM (top dose mostly 36.5 µM), inactives show at the highest dose activity change, negative = inhibition, most hits filed as inhibitors | hit rate 0.63% among 310,000 | AID 720579; active = well fitted inhibition curve with a large enough effect; inconclusive = small, poorly fitted or top-dose-only effect; inactive = no such curve, though single readings can be large or run the other way; tested in A549 cells; also: nearly all actives have a fitted effect of over 35% in size; inactives centre near -10
# Vaccinia Venus = inhibitors of vaccinia virus (Venus reporter) | hit rate 0.46% among 330,000 | Vaccinia virus Venus reporter expression, fluorescence | Potency, µM (highest dose often 36.5 µM), for the others: top-dose activity change, negative = inhibition, hits mostly inhibitors; active means well fitted inhibition curve with a large enough effect; inconclusive means small, poorly fitted or top-dose-only effect; inactive means no such curve, though single readings can be large or run the other way; tested in A549 cells; also: nearly all actives have a fitted effect of over 30% in size; inactives centre near -10
# Active calls of the source: *; i = inactive; ? = inconclusive; nt = not tested or not shown; [ ] = dose if it differs, or a comment. % is scaled to controls: 0 for no effect and ±100 for the full control effect; potency is read from the fitted curve at half-maximal effect. Compounds as they come. About 0.88% of those tested had a hit in this group.
SMILES,Vaccinia Venus,VACV mCherry inh
CCc1cccc(CC)c1NC(=S)NCC(c1cccnc1)N(C)C (centres undefined),-10%,i
CCN(CC)C(=O)C1=C(C)N(Cc2ccc(OC)cc2)C(=O)C(CC(=O)NC2CC2)C1 (centres undefined),-5%,i
COc1ccc(Cl)cc1NC(=S)N1CCC(c2ccc(C)cc2)C1 (centres undefined),8%,i
CC(C)Cn1c(CN(Cc2ccccc2)Cc2ccccc2)nc2c1c(=O)n(C)c(=O)n2C,-26%,-13%
CCCCn1c(N)c(N(CCOC)C(=O)CCCc2nc3ccccc3s2)c(=O)[nH]c1=O,-14%,i
CC(C)(C)c1ccc(CC(=O)N2CCC2(C)C(=O)NS(=O)(=O)c2cccc(F)c2)cc1 (centres undefined),-2%,11%
Cc1c(C(=O)NCC(C)(C)N2CCOCC2)cnn1-c1nccc(-c2cccs2)n1,-9%,-12%
Cc1nn(CC(=O)NCc2cc3ccccc3[nH]2)c(C)c1[N+](=O)[O-],3%,-13%
Cn1c(NCc2ccccc2)nc2c1c(=O)n(Cc1ccc(Br)cc1)c(=O)n2C,?,-12%[1.46 µM]
COc1ccc(C)cc1Nc1nc(C)nc2sc(C)cc12,-15%,-2%
COc1ccc(OC)c(Nc2nc3ccccc3n3cnnc23)c1,-4%,-22%
CC(C)N(Cc1nc(-c2ccc3c(c2)OCO3)no1)CC1CCC(=O)N1 (centres undefined),-10%,-13%
CSc1ccccc1NC(=S)NC1CCCCC1,-2%,9%
COc1cc(CN2CCN(S(=O)(=O)c3ccccc3)CC2)cc(OC)c1O,3%,-14%
O=C(CN1CCN(Cc2ccccc2)CC1)NCCNc1ccc([N+](=O)[O-])cn1,-14%,-6%

# More structures
SMILES,Vaccinia Venus,VACV mCherry inh
NC(N)=NCCCC(NC(=O)c1ccccc1)C(=O)Nc1ccc2ccccc2c1 (centres undefined),-21%,i
COc1ccc(Cn2c(-c3ccc(C)cc3)nc3c(c(=O)c4ccccc4n3C)c2=O)cc1,-25%,-24%
O=C(CN1C(=O)c2ccccc2S1(=O)=O)NCc1ccco1,-8%,i
COc1ccc2c(c1)cc(C(=O)N[C@@H](Cc1ccccc1)C(=O)N[C@@H](C)C(=O)O)n2C,-1%,-12%
CCCCC(=O)Nc1cccc(-c2csc(-c3ccccc3)n2)c1,?,-5%
C=CCn1c(C)cc(C(=O)CN2C(=O)c3ccccc3C2=O)c1C,-8%,i
COc1ccc(OCC(=O)NCCc2c[nH]c3ccccc23)cc1,-25%,-18%
COc1cc(CN2CC(=O)N(c3ccc(C)cc3)C2=S)cc(OC)c1OC,-16%,?
CN1C(=O)NC(c2cccc(O)c2)C(C(=O)c2cccs2)C1(O)C(F)(F)F (centres undefined),-11%,i
CN(C)CCCC(C)(O)C(C)(C)c1ccccc1 (centres undefined),-1%,-5%
CCOC(=O)[C@H]1[C@H]2COc3ccc(C)cc3[C@@H]2N2C(=O)c3cc(Br)ccc3NC(=O)[C@@]12C,-22%,4%
CCC(=O)Nc1ccc(S(=O)(=O)c2ccc(NC(=O)CC)cc2)cc1,-4%,-12%
COc1cccc(C=N[C@@H](CO)[C@@H](O)c2ccc([N+](=O)[O-])cc2)c1O,-20%,-15%
Cc1ccc(-c2nc3ccccc3c(=O)n2-c2ccccn2)cc1,0%,-12%
CCC(=NC)C1=C(O)CC(c2ccccc2)CC1=O (centres undefined),-9%,-20%

# Record cards, as listed above.
# CCCCC(=O)Nc1cccc(-c2csc(-c3ccccc3)n2)c1 is listed as Vaccinia Venus = ?; VACV mCherry inh = -5%
# O=C(CN1C(=O)c2ccccc2S1(=O)=O)NCc1ccco1 is listed as Vaccinia Venus = -8%; VACV mCherry inh = i

# Further results.
SMILES,Vaccinia Venus,VACV mCherry inh
Cn1cccc1-c1nc2ccc(NC(=O)c3ccc([N+](=O)[O-])cc3)cc2[nH]1,-1%,13%
Cc1ccc(CC(=O)Nc2ccccc2-c2ccccc2)cc1C,-15%,-5%
O=C(NCc1ccco1)C(=O)NCC(c1ccco1)N1CCOCC1 (centres undefined),-3%,-8%
COc1ccccc1Cc1c(-c2cccc(Cl)c2)nc2c(C)cc(Br)cn12,-6%,6%
Cc1ccccc1CNC(=O)c1ccccc1N(C)S(=O)(=O)c1ccccc1,-18%,-16%
N/C(=N/OC(=O)c1ccccc1Cl)c1ncc([N+](=O)[O-])s1,-5%[7.34 µM],-27%[7.34 µM]
CC(/C=C/c1ccc2c(c1)OCO2)=N/NC(=O)c1cccnc1,-6%,-28%
CC(C)OCCCNC(=O)CN1C(=O)CSc2ccc(S(=O)(=O)N3CCCCC3)cc21,-3%,-20%
CC(C)CCNC(=O)C1CC(c2cccc(F)c2)=NO1 (centres undefined),-13%,i
CS(=O)(=O)N(CC(=O)Nc1cccnc1)c1ccc2c(c1)OCCO2,-16%,-9%
COc1ccccc1NC(=O)/C=C1\NC(=O)CS1,-12%,-20%
CC(C)(C)c1ccc(C(=O)NCC(=O)OCC(=O)NC(=O)NC2CCCC2)cc1,-11%,-9%
COc1cccc(/C(O)=C2\C(=O)C(=O)N(c3ccccn3)C2c2ccccc2OC)c1 (centres undefined),-10%,-23%
Cc1ccc(N2CC3=C(C2=O)C(c2ccc(Br)cc2)NC(=O)N3C)cc1 (centres undefined),4%,-11%
Cc1cc(/C=N/NC(=O)c2ccccn2)c(C)n1-c1cccc([N+](=O)[O-])c1,-3%,-16%

# Some of these compounds in order of heavy-atom count, smallest number first:
SMILES,Vaccinia Venus,VACV mCherry inh
CC(/C=C/c1ccc2c(c1)OCO2)=N/NC(=O)c1cccnc1,-6%,-28%
Cc1ccc(N2CC3=C(C2=O)C(c2ccc(Br)cc2)NC(=O)N3C)cc1 (centres undefined),4%,-11%
CC(C)OCCCNC(=O)CN1C(=O)CSc2ccc(S(=O)(=O)N3CCCCC3)cc21,-3%,-20%

# Continuation:
SMILES,Vaccinia Venus,VACV mCherry inh
Cc1ccccc1CSCC(=O)c1c(N)n(C)c(=O)n(C)c1=O,-10%,-18%
Cc1nn(C)c(C)c1S(=O)(=O)N(CC(=O)NCCc1ccccc1)c1ccc(C(C)C)cc1,-13%,-8%
Cc1ccc(NC(=O)CSc2nc3c(oc4ccccc43)c(=O)n2-c2ccc(F)cc2)c(C)c1,-3%,3%
CCOC(=O)c1ccc(N2CSC3=C(C#N)C(c4ccc(OC)cc4OC)CC(=O)N3C2)cc1 (centres undefined),-3%,25%
Cc1ccc(S(=O)(=O)N2CCN(C(=O)COC(=O)/C=C/c3ccc(Cl)cc3)CC2)c(C)c1,-10%,i
COc1cc2ccccc2cc1C(=O)Nc1nnc(-c2ccncc2)o1,-17%,-20%
Cc1nn(C(=O)c2ccc(Cl)cc2)c(C)c1S(=O)(=O)N1CCOCC1,-6%,4%
CCOC(=O)C1=C(N)OC2=C(C(=O)CC(C)(C)C2)C1c1ccoc1 (centres undefined),?,-23%
Cc1ccc(C(=O)Nc2cccc(C(=O)N3CCOCC3)c2)cc1Cl,-26%,-5%
Cc1ccnc2c(N3C(=O)C4C5C=CC(C5)C4C3=O)cccc12 (centres undefined),-13%,nt
CCOc1ccc(-c2c(C)sc3nc[nH]c(=O)c23)cc1,-6%,-18%
Cc1ccc(C(=O)NCC(=O)N2CCCCCC2)cc1,-1%,-2%
O=C(CSc1cccc[n+]1[O-])CSc1cccc[n+]1[O-],-7%,?
COc1ccc(C(=O)NCCc2sc(-c3ccc(F)cc3)nc2C)cc1OC,4%,0%
CCC(=O)N1CCN(c2ccc(Cl)cc2NC(=O)Cc2ccccc2)CC1,-1%,nt

# The listing continues:
SMILES,Vaccinia Venus,VACV mCherry inh
CCCCN(C(=O)c1ccc(N(C)S(=O)(=O)c2ccc(C)cc2)cc1)c1c(N)n(CCC)c(=O)[nH]c1=O,-8%,1%
C/C(CC(=O)Nc1cc(Cl)ccc1C)=N\NC(N)=O,-5%,i
Cc1ccc(Nc2n[nH]c(=S)s2)cc1,-26%,-15%
COc1cccc(N2CC(NC(=O)c3cc4ccccc4o3)CC2=O)c1 (centres undefined),-13%[7.34 µM],-8%[7.34 µM]
Cc1cc(C)c(S(=O)(=O)Nc2ccncc2)cc1C,0%,-20%
COCc1nnc(NC(=O)C2CC(=O)N(c3ccc(C)c(Cl)c3)C2)s1 (centres undefined),8%,-13%
O=C(COc1cccnc1[N+](=O)[O-])NCc1ccco1,1%,i
CC(C)C(O)C1CCN(Cc2nc(Cc3ccccc3Cl)no2)CC1 (centres undefined),-15%,-15%
CCC1Oc2ccccc2N(CC(=O)NCc2ccc(C)cc2)C1=O (centres undefined),0%,4%
CCCn1c(SCc2nc(-c3ccccc3C)no2)nnc1-c1ccc(Cl)cc1,-2%,-9%
O=C1CSC(c2cccc(F)c2)N1c1ccccc1 (centres undefined),-5%,i
Cc1c(-c2nc(-c3ccccc3F)no2)nnn1-c1cc(F)ccc1F,-7%,-13%
COc1ccc(/C(C)=N\n2cnnc2)cc1,-5%,nt
COc1ccc(C(=O)NC(C)Cc2cnccn2)cc1OC1CCN(C(C)C)CC1 (centres undefined),-10%,-16%
O=C1CCCC2=C1C(c1cccs1)CC(=O)N2c1ccc(F)cc1 (centres undefined),9%,-28%

# Next part.
SMILES,Vaccinia Venus,VACV mCherry inh
CCN(CC)S(=O)(=O)c1ccc(S(=O)(=O)N2CCC(N3CCCCC3)CC2)cc1,-14%,-33%
C=C(C)C(=O)Nc1cccc(C(C)=O)c1,-2%,-1%
CCOC1(OCC)N=C(N)C2(C#N)C(c3cccc(OC)c3OC)C12C#N (centres undefined),-8%,nt
COc1ccc(NC(=O)CSc2ccc(-c3sc(C)nc3C)nn2)cc1,-5%,-14%
Cc1ccc(S(=O)(=O)C(CNC(=O)c2ccc(F)c(F)c2)c2ccco2)cc1 (centres undefined),-18%,-12%
Cc1cccc(-n2ncc3c(NC(C)C)ncnc32)c1,-25%,-22%
Cc1cc(C(=O)NCc2nc(-c3ccccc3)no2)ccc1[N+](=O)[O-],-9%,0%
CCCNC(=S)NC1CC2CCCC(C1)N2CC(C)C (centres undefined),-7%,i
O=C(Cn1c(SCc2ccccc2F)nc2cccnc21)Nc1ccc(F)c(Cl)c1,-24%,-17%
CCN(CC)S(=O)(=O)c1cccc(C(=O)NCC(=O)OCC(=O)NCc2ccccc2)c1,-15%,-14%
Cc1ccc(-n2c(O)c(C=NCCC3=CCCCC3)c(=O)[nH]c2=O)cc1,-10%,-5%
NC(=O)c1c(N)sc2c1CCCCC2,-14%,-10%[1.46 µM]
Cc1ccc(SCCc2ccc(C)nc2)cc1,-12%,i
CCOC(=O)N1CCN(C(=O)C[C@@H]2C[C@@]3(C(=O)OCC)CCC=C3N(Cc3ccco3)C2=O)CC1,9%,23%
CCCn1c(=N)c(C(=O)NCc2cccnc2)cc2c(=O)n3cccc(C)c3nc21,2%,11%

# Next part.
SMILES,Vaccinia Venus,VACV mCherry inh
CCOc1ccc(NC(=O)CCNc2c(N3CCCC3)c(=O)c2=O)cc1,-12%,-11%
O=C(Nn1c(-c2ccncc2)nc2ccccc2c1=O)c1ccc([N+](=O)[O-])cc1Cl,-13%,-8%
O=C(CSc1nc2ncccc2o1)Nc1ccc(Cl)cc1F,-12%,-10%
COc1ccccc1NC(=O)C1=C(C)Nc2ncnn2C1c1ccc(C)o1 (centres undefined),-13%,nt
N#C/C(=C(/O)Cc1ccccc1)P(=O)(c1ccccc1)c1ccccc1,-1%,-7%
C=CCn1c(CCNC(=O)c2ccccc2F)nnc1SCC(=O)Nc1nc2ccccc2s1,-16%,-2%
COC(=O)C1=C(c2c(C)noc2C)C[C@@H]2CC[C@H]1N2C(=O)N1CCC(C)CC1,-7%,i
CN(C)c1cc[n+](CC(=O)Nc2ccc([N+](=O)[O-])cc2Cl)cc1,-23%,?
O=C(N/N=C/c1ccncc1)c1cccc(N/N=C/c2ccncc2)c1,10%,-4%
COc1ccc(-n2nnnc2C(c2ccccc2OC(F)(F)F)N2CCN(C/C=C/c3ccccc3)CC2)cc1 (centres undefined),-6%,4%
Cc1ccc(SC2=C(C(=O)O)CCCC2)cc1,7%,-5%
CC(C)=CCN1CCN(Cc2c(C)nn(C)c2Cl)CC1CCO (centres undefined),1%,-3%
Cc1nc(C)c(C(=O)NN=Cc2ccc(N(CCCl)CCCl)cc2)s1,-25%,i
Cc1ccc(-n2c(C)nnc2SCC(=O)NNC(=O)c2ccco2)cc1,-1%,-5%
CC(C)C(=O)N1CCC1(C)C(=O)NCc1cc(Cl)ccc1F (centres undefined),-4%,19%

# The listing continues:
SMILES,Vaccinia Venus,VACV mCherry inh
OC(c1ccccc1)c1nc(-c2cc(F)cc(F)c2)cs1 (centres undefined),?,?
Cc1ccccc1OCCOC(=O)c1cc(S(=O)(=O)N2CCCCC2)ccc1N1CCOCC1,?,?
CCC1C2CC3C4N(C)c5ccccc5[C@]45CC(C2C5O)N3C1O (some centres undefined),-13%,i
O=C(O)c1ccc2c(c1)nnn2C1CCCCC1,-6%,-15%
Cc1nc2c(C)cccc2cc1C(=O)N/N=C/c1ccc(C(=O)O)cc1,-6%,7%
O=C(CCC1CCCC1)N1CCN(C(=O)c2ccco2)CC1,-17%,-19%

# From PubChem
